# Rce1 inh: yeast Rce1p protease inhibitors, primary screen, biochemical, fluorescence, cell-free homogeneous; yeast membranes, quenched prenylated peptide cleavage fluorescence; AID 2563, 2010; CAAX prenyl protease 2 (Saccharomyces cerevisiae (strain ATCC 204508 / S288c)), Q03530; calls only; 290,000 tested, 0.27% active;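 active = fall in fluorescence gain of 50% or more versus controls, with final raw signal at or below 3038400; inconclusive = same 50% fall but final raw signal above 3038400; inactive = fall in fluorescence gain under 50%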;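 note: plate controls were neutral control wells for no effect and wells lacking membranes for full effect; tested at 10 µM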
# Target sequence (Q03530 whole entry, looked up): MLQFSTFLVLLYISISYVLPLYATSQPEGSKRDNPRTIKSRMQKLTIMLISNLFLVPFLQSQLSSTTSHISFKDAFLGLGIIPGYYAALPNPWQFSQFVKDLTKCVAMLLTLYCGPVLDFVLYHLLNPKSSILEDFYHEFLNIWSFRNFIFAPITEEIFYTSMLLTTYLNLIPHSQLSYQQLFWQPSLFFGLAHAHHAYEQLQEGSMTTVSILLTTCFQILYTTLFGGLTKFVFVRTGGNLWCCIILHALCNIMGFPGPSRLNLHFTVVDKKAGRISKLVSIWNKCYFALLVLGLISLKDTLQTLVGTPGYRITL
# PABP polyA inh: PABP poly(A) RNA binding inhibitors, primary screen, biochemical, fluorescence polarization, uHTS; Polyadenylate-binding protein 1 (Homo sapiens), P11940; inhibition, % at 35 µM; 290,000 tested, 1% active; AID 2014, 2009;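 active = 50% or more with normal probe brightness, or confirmed in later tests; inconclusive = above 50% with abnormal brightness, or retests that disagree; inactive = below 50% or failed in later tests; about a fifth of its hits are not listed in these tables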;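 note: calls also rest on retests at 20 µM and on dose response follow-up; controls were probe without protein and protein plus probe with vehicle; some compounds called inactive have numbers as strong as hits; many hits fall short of the cut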
# Target sequence (P11940 whole entry, looked up): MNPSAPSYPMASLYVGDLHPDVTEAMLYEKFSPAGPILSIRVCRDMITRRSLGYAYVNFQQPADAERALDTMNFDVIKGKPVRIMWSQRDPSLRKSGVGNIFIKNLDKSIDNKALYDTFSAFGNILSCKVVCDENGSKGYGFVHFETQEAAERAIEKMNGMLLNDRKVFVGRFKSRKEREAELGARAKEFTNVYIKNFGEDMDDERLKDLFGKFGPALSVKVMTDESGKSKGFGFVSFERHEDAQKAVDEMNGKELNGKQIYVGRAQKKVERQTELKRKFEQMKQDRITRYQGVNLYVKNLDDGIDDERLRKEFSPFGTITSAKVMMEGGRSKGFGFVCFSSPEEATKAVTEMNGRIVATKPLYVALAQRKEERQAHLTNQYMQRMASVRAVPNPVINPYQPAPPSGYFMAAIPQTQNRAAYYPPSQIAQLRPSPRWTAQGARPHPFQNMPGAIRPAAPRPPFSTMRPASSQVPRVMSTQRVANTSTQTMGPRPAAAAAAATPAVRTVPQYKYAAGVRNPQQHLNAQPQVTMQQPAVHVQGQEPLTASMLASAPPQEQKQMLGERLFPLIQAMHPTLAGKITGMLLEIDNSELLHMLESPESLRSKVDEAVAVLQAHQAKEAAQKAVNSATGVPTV
# CSC inhib: cancer stem cell viability inhibitors, primary screen, luminescence | cancer stem cell-like cells viability | inhibition, % at 7.5 µM | 300,000 tested, 1.1% active;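 active = mean at 75% or more and at least half the replicates too; inconclusive = mean and replicates disagree; tested in HMLE shEcad cells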;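 note: 0% = median of negative and 100% = median of positive control wells; the first replicate is given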
# HIV Env fusion: inhibitors of HIV-1 Env-driven cell-cell fusion, primary screen, HeLa-JRFL effector, CEM21 target cells, luciferase | inhibition, % at 12.3 µM | 360,000 tested, 1.1% active;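 active = mean replicate inhibition score of at least 50 and every replicate individually at or above 50; inconclusive = only one of the two criteria met; inactive = mean below 50 and not all replicates reaching 50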;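 note: 0% = plate neutral controls and 100% = maraviroc near 300 nM; one replicate is shown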
# eIF4H FP inh: human eIF4H binding inhibitors, primary screen, translation initiation inhibitor project, biochemical, uHTS, fluorescence polarization | eIF4H fluorescence polarization binding assay | Eukaryotic translation initiation factor 4H (Homo sapiens), Q15056 | AID 2012, 2009 | 290,000 tested, 0.94% active | inhibition, % at 35 µM;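 active = 50% or more with normal probe brightness, or confirmed in later tests; inconclusive = above 50% with abnormal brightness, or retests that disagree; inactive = below 50% or failed in later tests; about a fifth of its hits are not listed in these tables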;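 note: calls also rest on retests at 20 µM and on dose response follow-up; 0% = protein and probe with vehicle and 100% = probe without protein; strong numbers were not always called active; many hits fall short of the cut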
# UUG fidelity: modulators of yeast start codon fidelity, primary screen, whole organism, S. cerevisiae, single point, plate reader; S. cerevisiae UUG-firefly luciferase reporter, luminescence/redox ratio; activity score, % at 18.7 µM; 350,000 tested, 0.13% active; AID 602363, 2012;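 active = replicate mean at a twofold rise or more, about +100% in these data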;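 note: firefly luciferase made from a UUG start codon reports start codon fidelity; reporter light over untreated wells divided by growth signal over untreated wells; some hits fall short of that in this replicate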
# MT1-MMP act inh: blockers of MT1-MMP proenzyme processing, primary screen, HT1080 RFP-PRO-GFP cells, GFP/RFP fluorescence. Matrix metalloproteinase-14 (Homo sapiens), P50281. GFP/RFP ratio fluorescence, overnight; percent of plate control window, DMSO zero. GFP/RFP ratio change, % at 20 µM. 360,000 tested, 0.061% active. AID 651647, 2012;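 active = GFP/RFP ratio change of at least 30% with cell ATP level not reduced by more than half and red fluorescence within 50% of control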; note: strong numbers were not always called active
#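 Read-out: GFP/RFP fluorescence ratio; Test system: RFP-PRO-GFP reporter HT1080 cells; Compound dosing: single-point 20 µM compound, 1% DMSO; Times: overnight compound exposure at 37 °C.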
# eIF4H FP inh retest: further read-out of eIF4H FP inh, marked with its call; inhibition, %; compound at 20 µM; confirmation average;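 mean of two retest wells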
# PABP polyA inh retest: second read-out of PABP polyA inh, no call of its own (marks repeat the call); inhibition, %; compound at 20 µM; confirmation repeats;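 mean of two retest wells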
# MT1-MMP act inh RFP: also measured in MT1-MMP act inh; calls as there; RFP signal change, %; measured here: RFP expression control read;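 0 = vehicle wells; hits needed this value within 50% of zero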
# The depositor's hits bear a star; i = inactive; ? = inconclusive; nt = not tested or not shown. A portion of the library, so the mix of outcomes need not match the whole.
# The first five records as a preview:
SMILES,Rce1 inh,PABP polyA inh,CSC inhib,HIV Env fusion,eIF4H FP inh,UUG fidelity,MT1-MMP act inh,MT1-MMP act inh RFP,others
Cc1ccc(C(=O)Nc2ccccn2)cc1S(=O)(=O)N1CCOCC1,i,nt,-15,-3,nt,-10,0,1,
COCCNC(=O)CN(C(=O)CCC(=O)Nc1ccccn1)c1cc(C)ccc1C,i,-3,-19,-6,1,-11,-3,-1,
O=c1[nH]nc(Cc2ccc(-c3cccc(Cl)c3)o2)c2ccccc12,i,-4,nt,47,4,-10,-11,-17,
Cc1ccc(-c2nn(-c3ccccc3)cc2CN(C)C(=O)CCC(=O)O)cc1C,i,6,11,7,0,15,7,6,
Cc1cnc(NC(=O)CSc2nnc(N)s2)s1,i,4,-10,8,-9,nt,-3,-1,

# Main list, from the start:
SMILES,Rce1 inh,PABP polyA inh,CSC inhib,HIV Env fusion,eIF4H FP inh,UUG fidelity,MT1-MMP act inh,MT1-MMP act inh RFP,others
Cc1ccc(C(=O)Nc2ccccn2)cc1S(=O)(=O)N1CCOCC1,i,nt,-15,-3,nt,-10,0,1,
COCCNC(=O)CN(C(=O)CCC(=O)Nc1ccccn1)c1cc(C)ccc1C,i,-3,-19,-6,1,-11,-3,-1,
O=c1[nH]nc(Cc2ccc(-c3cccc(Cl)c3)o2)c2ccccc12,i,-4,nt,47,4,-10,-11,-17,
Cc1ccc(-c2nn(-c3ccccc3)cc2CN(C)C(=O)CCC(=O)O)cc1C,i,6,11,7,0,15,7,6,
Cc1cnc(NC(=O)CSc2nnc(N)s2)s1,i,4,-10,8,-9,nt,-3,-1,
O=C(NCCCn1ccnc1)C1CC2CCC1C2 (stereo not drawn),i,10,4,-26,13,-21,1,3,
Cc1cc(C)c(-c2cc(C)nc3ncnn23)c(C)c1,i,-6,-16,14,8,-8,1,1,
CCOC(=O)N/N=C\c1ccc(OC/C=C/c2ccccc2)c(OC)c1,i,6,nt,-3,-4,-2,1,-2,
CCOC(=O)C1=C(C)N=c2s/c(=C/c3ccc(OCC(=O)O)cc3)c(=O)n2C1c1ccc(OC)cc1OC (stereo not drawn),i,16,nt,0,1,3,4,1,
O=C1c2cccc3cccc(c23)C(=O)N1c1ccccn1,i,17,-4,10,1,1,0,1,
CC1=NN(c2ccccc2)C(=O)/C1=C/c1ccc(-c2ccc(C)c(C(=O)O)c2)o1,i,nt,9,-8,nt,nt,nt,nt,
CC(C)C1C(=O)N(Cc2cn(CCC3OCCCO3)nn2)CCS(=O)(=O)N1Cc1ccc(-c2ccncc2)cc1 (stereo not drawn),nt,nt,nt,-12,nt,-12,0,3,
Cc1cc2cc(CCNC(=O)CC(C)(C)C)c(=O)[nH]c2cc1C,nt,1,-5,-10,5,-16,0,-1,
O=C(CC1SC(N2CCOCC2)=NC1=O)Nc1ccccc1Cl (stereo not drawn),nt,nt,1,nt,nt,-24,-3,3,
COc1cc(OC)c(C2C(C#N)=C(N)OC3=C2C(=O)CC(C)C3)cc1OC (stereo not drawn),i,6,-10,-27,13,12,1,1,
Cc1ccc(C)c(NC(=O)CN(C)C(=O)/C=C/c2ccco2)c1,i,1,-4,13,0,nt,5,2,
Cc1c(NC(=O)c2ccc3c4c(cccc24)CC3)c(=O)n(-c2ccccc2)n1C,i,-9,-2,nt,105,-17,0,0,eIF4H FP inh retest=-6;PABP polyA inh retest=8
CC1(C)Cc2nc(-c3ccccc3)nc(SCC(O)CO)c2CO1 (stereo not drawn),i,2,-8,16,10,-6,-2,3,
Cc1ccn2c(=O)nc(SCC(=O)NCc3ccc4c(c3)OCO4)nc2c1,i,nt,-4,-13,nt,nt,4,4,
O=c1c2ccccc2nnn1Cc1cccc2ccccc12,i,5,-8,7,-6,1,1,1,
Cc1ccc(C)c(NC(=S)NCCc2ccc(S(N)(=O)=O)cc2)c1,i,nt,-9,-27,nt,-28,8,9,
COc1ccc(S(=O)(=O)N2CCN(S(=O)(=O)c3ccc4c(c3)OCCO4)CC2)cc1C,i,-3,nt,-221,-14,-20,6,-6,
COc1cc(C(=O)Nc2nccs2)c(Br)c(OC)c1OC,i,1,31,-6,0,nt,2,2,
Cc1ccc(N/C=C(\[N+](=O)[O-])S(=O)(=O)c2ccccc2)cc1,i,-2,-4,8,3,nt,1,3,
Cc1nnc(SCC(=O)N(Cc2ccccc2)C(C)C)n1-c1ccccc1,i,-11,-12,nt,2,-19,1,0,

# Ordered by length of the SMILES (highest first): part of the list above
SMILES,Rce1 inh,PABP polyA inh,CSC inhib,HIV Env fusion,eIF4H FP inh,UUG fidelity,MT1-MMP act inh,MT1-MMP act inh RFP,others
COc1ccc(S(=O)(=O)N2CCN(S(=O)(=O)c3ccc4c(c3)OCCO4)CC2)cc1C,i,-3,nt,-221,-14,-20,6,-6,
CC1=NN(c2ccccc2)C(=O)/C1=C/c1ccc(-c2ccc(C)c(C(=O)O)c2)o1,i,nt,9,-8,nt,nt,nt,nt,
Cc1ccc(-c2nn(-c3ccccc3)cc2CN(C)C(=O)CCC(=O)O)cc1C,i,6,11,7,0,15,7,6,

# Continued.
SMILES,Rce1 inh,PABP polyA inh,CSC inhib,HIV Env fusion,eIF4H FP inh,UUG fidelity,MT1-MMP act inh,MT1-MMP act inh RFP,others
Cc1cc(N2CCN(c3nc4ccccc4s3)CC2)n2ncnc2n1,i,-7,1,87*,-12,6,6,-17,
COc1ccc(NC(=O)C2CC(c3ccc(OC)c(OC)c3)=NO2)cc1OC (stereo not drawn),i,8,nt,7,2,-2,-1,1,
O=C1Nc2cc(S(=O)(=O)N3CCCC3)ccc2N2CCCC12 (stereo not drawn),i,-2,-9,18,0,-17,-3,6,
Cc1ccccc1C(=O)NC1CCN(Cc2nnnn2C(C)(C)C)CC1,i,?,2,-4,?,-11,2,1,
O=C(/C=C/c1ccco1)OCn1nnc2ccccc2c1=O,i,4.6*,1,19,68*,nt,-1,1,eIF4H FP inh retest=80*;PABP polyA inh retest=63*
O=C(NC12CCC(O)C(SC1)/C2=N/O)c1ccccc1 (stereo not drawn),i,-7,-12,-115,12,-15,-3,0,
O=C(COC(=O)c1ccccc1-n1cnnn1)c1ccc(Br)cc1,i,nt,-17,-23,nt,-12,1,0,
Cc1ccc(Sc2ccc(CN3CCCC3)cc2[N+](=O)[O-])cc1,i,6,1,-6,11,-16,2,-7,
Cc1cc(Br)cn2c(Cc3ccccc3)c(-c3ccc(C#N)cc3)nc12,nt,nt,nt,0,nt,7,-6,1,
C#CCOCCOCCOCCNc1nc(N2CCN(C(=O)Cn3cc(CCCN=C(N)N)nn3)CC2)nc(N2CCN(C(=O)[C@H](C(C)C)n3cc(CCO)nn3)CC2)n1,i,-6,-9,-13,-3,-7,0,4,
C/C=C/C(=O)N1CC2(CC(c3cccc(NC(=O)/C(C)=C/C)c3)=NO2)C[C@H]1C(N)=O (stereo partly drawn),i,17,8,-3,2,-18,-2,4,
CCc1ccc(CN(C)C(=O)CCc2nnc(COc3ccccc3)o2)cc1,i,5,-14,-13,-2,nt,-1,-3,
Cc1cccc(CSCc2ccc(C(=O)O)o2)c1,i,5,23,11,-4,-10,-1,1,
Cc1ccc(C)n1-n1c(C)nc2scc(-c3cccs3)c2c1=O,i,4,-18,nt,0,-8,-1,1,
O=C(NCc1ccco1)C1OCCc2ccccc21 (stereo not drawn),i,13,0,nt,10,-4,-3,4,
CCOc1ccc(NC(=O)CCc2nnc3ccc(N4CCC5(CC4)OCCO5)nn23)cc1,i,4,-18,-1,-5,-15,0,1,
CCOC(=O)C1=C(COC(=O)COc2cccc(C)c2C)NC(=O)NC1C (stereo not drawn),nt,nt,nt,3,nt,1,-1,1,
Cc1cccc(NC(=O)N2CCC(NC(=O)C3CCCCC3)CC2)c1,i,2,-4,-3,-1,-15,1,3,
Cc1ccc(NC(=O)c2ccc(Nc3ccccc3F)nc2)cc1,i,-5,12,15,-6,nt,1,-2,
CCCN(CCC)CC(O)CN1C(=O)N(CN2C(=O)N(CC(O)CN(CCC)CCC)C(=O)C2(C)C)C(C)(C)C1=O (stereo not drawn),i,0,5,0,3,nt,3,5,
Cc1ccc2cc3cc(C(=O)N4CC(C)CC(C)C4)oc3nc2c1 (stereo not drawn),nt,2,53,-71,-8,1,3,-1,
Cc1cc(=O)cc(C)n1-c1ccc(Cl)cc1,i,-6,-9,1,-2,nt,4,2,
CCOC(=O)CCN(Cc1cccs1)S(=O)(=O)c1ccc(Cl)cc1,i,1,2,nt,1,nt,-9,-7,
O=[N+]([O-])c1cccc(/C=N/Nc2nc(NCc3ccccc3)nc(N3CCOCC3)n2)c1O,i,0,42,-2,8,nt,-3,-9,
COc1ccc2[nH]cc(C(=O)CN3CCCCC3)c2c1,i,-4,nt,nt,6,-15,-5,2,

# Next section
SMILES,Rce1 inh,PABP polyA inh,CSC inhib,HIV Env fusion,eIF4H FP inh,UUG fidelity,MT1-MMP act inh,MT1-MMP act inh RFP,others
Cn1c(N)c(C(=O)CSc2nc3ccccc3[nH]2)c(=O)n(C)c1=O,i,12,1,7,3,-7,2,1,
CC(=O)Nc1ccc(NC(=O)C(C)OC(=O)C2(c3ccc(Cl)cc3)CCCC2)cc1 (stereo not drawn),i,45,-4,-10,-4,nt,-6,-7,
COc1ccc(/C=N/NS(=O)(=O)c2ccccc2)cc1OC(=O)c1ccc(C)cc1,i,8,4,nt,-2,-13,-2,-6,
CN(C)S(=O)(=O)c1cccc(NC(=S)Nc2cc(Cl)cc(Cl)c2)c1,i,-2,3,4,-3,-13,0,2,
Cc1ccsc1/C=N/NC(=O)Cc1ccc(Cl)cc1,i,-6,-6,3,-7,-9,1,-5,
Cn1c(/C(C#N)=C/c2ccncc2)nc2ccccc21,i,61,-4,-69,?,-15,-5,1,PABP polyA inh retest=32
Cc1nnc(SCc2nc3sc4c(c3c(=O)[nH]2)CCCC4)[nH]c1=O,i,8,-9,6,3,nt,-23,3,
Cc1ccc(/C=N/NC(=O)c2c(-c3ccccc3)noc2C)o1,i,-2,-6,21,-9,nt,1,7,
CC(=O)c1c(C(C)=O)c(C)n(NC(=O)c2cccnc2)c1C,nt,-6,4,nt,-5,-5,-3,6,
Fc1ccc(CSc2nnc(-c3cc4c(s3)-c3ccccc3CC4)o2)cc1,i,-10,14,nt,-12,nt,1,4,
CCOC(=O)N1CCN(S(=O)(=O)c2ccc(C(=O)Nc3nnc(CSC)o3)cc2)CC1,i,6,7,18,14,nt,-5,1,
COc1ccc(NC(=O)NC2(C(=O)N3CCN4CCCC4C3)CCCCC2)cc1 (stereo not drawn),nt,4,-12,-10,-16,-9,4,5,
Cc1ccc(NC(=O)CN2C(=O)CCS(=O)(=O)c3ccccc32)cc1Cl,i,1,-3,-18,-2,-1,-1,-2,
Cc1ccc(S(=O)(=O)N(C)c2ccc(OCC(=O)O)cc2)cc1,i,20,1,-13,2,-29,1,0,

# From PubChem
